# Compound activity deposited in PubChem BioAssay by several laboratories.
# Beta cell apopt: inhibitors of cytokine-induced beta cell apoptosis, primary screen, luminescence | INS-1E cytokine-induced death, ATP luminescence, 48 h; percent of positive-control rescue, neutral wells zero | protection from apoptosis, % (concentration not given with the values) | hit rate 0.8% among 300,000 | AID 435005, 2010;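 active = all replicates at 75% or more, or half of them and the mean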;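 also: 0% = cytokine-treated negative control wells and 100% = positive control rescue; higher means more ATP so stronger rescue from cytokine killing; wells of about 40 µL received 100 nL stock; the first replicate is given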
# T cruzi repl: inhibitors of intracellular T. cruzi growth, primary screen, luminescence, NIH3T3 host cells | T. cruzi beta-gal in NIH3T3, 90 h | inhibition, % (test concentration not listed) | hit rate 1.4% among 300,000 | AID 1885, 2009;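 active = mean inhibition across valid replicates above about 55%, limit read from the data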;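 also: signal also drops with host cell toxicity which is not excluded here; 0% = plate median of DMSO wells and 100% = zero luminescence signal; higher percent means less beta-gal luminescence so fewer parasites; stock transfer was 50 nL into about 50 µL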
# Ecoli rRNA inh: reduced GFP signal of wild-type E. coli, primary screen, bacterial rRNA inhibitor project, GFP/RFP fluorescence, OD600, single point; E. coli WT GFP vs humanized-ribosome RFP mutants, 24 h; stronger effect = lower value; DMSO median 0, no signal -100; GFP signal change (wild-type ribosome), % (no concentration beside the values); hit rate 1.6% among 350,000; AID 720706, 2013;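 active = significant combined selectivity score with lowered wild-type GFP, culture density cut under 30%, mutant RFP and density less affected; inactive = any of these conditions unmet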; also: one replicate is shown; some compounds called inactive have numbers as strong as hits
# FGF22 binding: binders of human FGF22 protein, primary screen, FGF22 synaptogenesis inhibitor project, biophysical, thermal shift, single point. recombinant FGF22 thermal shift, SYPRO orange fluorescence; percent of sucrose octasulfate shift, DMSO zero. Fibroblast growth factor 22 (Homo sapiens), Q9HCT0. hit rate 1.5% among 340,000. AID 651658, 2012. calls only at 9.99 µM;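 active = melting point raised past a set limit in the mean and every replicate; three in four hits are not shown here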
# Target sequence (Q9HCT0 whole entry, looked up): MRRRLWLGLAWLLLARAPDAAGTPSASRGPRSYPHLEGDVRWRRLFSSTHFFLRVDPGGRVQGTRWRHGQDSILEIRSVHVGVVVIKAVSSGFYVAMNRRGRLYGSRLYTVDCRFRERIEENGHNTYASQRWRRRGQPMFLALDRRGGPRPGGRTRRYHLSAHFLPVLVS
# MLL AF4-AF9 inh: inhibitors of AF4 peptide binding to AF9, primary screen, biochemical, AlphaScreen, biotin-AF4 peptide, FLAG-AF9, single point; Protein AF-9 (Homo sapiens), P42568; inhibition, % at 10 µM; hit rate 0.47% among 350,000; AID 651704, 2012;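 active = every replicate reaching a set inhibition limit, whatever the replicate mean, cut at about 25% in these data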;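 also: 0% = plate neutral control median and 100% = total signal loss; the record names both 10 and 1 µM as test concentration; the first replicate is given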
# Target sequence (P42568 whole entry, looked up): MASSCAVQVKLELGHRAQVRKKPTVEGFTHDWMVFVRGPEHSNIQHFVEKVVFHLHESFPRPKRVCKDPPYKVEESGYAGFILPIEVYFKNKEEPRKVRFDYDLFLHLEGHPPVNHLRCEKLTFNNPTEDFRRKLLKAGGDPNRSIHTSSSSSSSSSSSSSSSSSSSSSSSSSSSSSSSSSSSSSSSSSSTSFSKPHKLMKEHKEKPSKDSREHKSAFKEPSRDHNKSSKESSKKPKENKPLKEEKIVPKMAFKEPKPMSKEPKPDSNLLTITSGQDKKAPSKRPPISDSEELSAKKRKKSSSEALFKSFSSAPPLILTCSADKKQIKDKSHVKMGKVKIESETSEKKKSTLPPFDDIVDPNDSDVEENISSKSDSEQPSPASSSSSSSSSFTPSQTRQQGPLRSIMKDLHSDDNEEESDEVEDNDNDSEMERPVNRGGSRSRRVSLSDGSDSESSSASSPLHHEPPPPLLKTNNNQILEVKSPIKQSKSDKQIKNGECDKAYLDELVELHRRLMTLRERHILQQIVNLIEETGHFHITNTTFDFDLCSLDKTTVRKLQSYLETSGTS
# Bfl-1 A1 inh: caspase 3/7 activation in MEF A1-2A-BIM cells, primary screen, A1 inhibitor project, cell-based, luminescence, HTS; Caspase-Glo 3/7 luminescence, 3 h; percent of clofoctol response, vehicle zero; caspase activation, % (no concentration beside the values); hit rate 0.066% among 330,000; AID 2462, 2010;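 active = over half of replicate activation scores above 10%, or exactly half above 10 with the replicate mean above 10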;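 also: wells of about 30 µL received 50 nL stock; many hits fall short of the cut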
# UCH37 inh: inhibitors of human UCH37 deubiquitinase, primary screen, biochemical, Ub-AMC cleavage, fluorescence; hit rate 0.33% among 330,000; purified proteasome/UCH37; inhibition, % (concentration not given with the values);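 active = mean of two replicates above 20%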;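 also: 0% = compound-free wells with enzyme and 100% = wells lacking proteasome; stock transfer was 100 nL into about 20 µL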
# Target sequence (Q9Y5K5 whole entry, looked up): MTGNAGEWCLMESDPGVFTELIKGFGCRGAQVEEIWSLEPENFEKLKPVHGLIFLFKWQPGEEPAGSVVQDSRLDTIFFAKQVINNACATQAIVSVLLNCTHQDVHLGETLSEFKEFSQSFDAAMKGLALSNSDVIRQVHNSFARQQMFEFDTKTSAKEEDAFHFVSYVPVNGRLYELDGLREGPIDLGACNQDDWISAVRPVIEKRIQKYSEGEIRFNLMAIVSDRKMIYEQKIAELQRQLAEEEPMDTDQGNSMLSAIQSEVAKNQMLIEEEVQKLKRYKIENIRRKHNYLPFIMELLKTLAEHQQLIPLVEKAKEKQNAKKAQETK
#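 Material: human UCH37 enzyme supplied as purified proteasome complex / Amount: 0.15 nM proteasome as dispensed / Buffer or medium: pH 7.4 Tris-HCl (50 mM) with ovalbumin, ATP-MgCl2, DTT / Times: preincubation 30 min, reaction 25 min, room temperature / Technique: AMC fluorescence from Ub-AMC cleavage, excitation 355 nm, emission 460 nm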
# E coli growth: E. coli growth inhibition, primary screen, OD600; Escherichia coli growth, 23 h; stronger effect = lower value; OD600 absorbance (test concentration not listed); hit rate 0.21% among 330,000; AID 1053175, 2014;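 active = OD600 absorbance below the run mean of sample wells minus 3.6 SD, in any replicate, cut at about 0.56 in these data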;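 also: stock transfer was 300 nL into about 60 µL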
# Ecoli rRNA inh OD600: second read-out of Ecoli rRNA inh, no call of its own (marks repeat the call); OD600 change, %; measured here: OD600 growth;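 optical density of the mix in the first replicate; 0 = DMSO median and -100 = no signal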
# Ecoli rRNA inh RFP: recorded beside Ecoli rRNA inh, whose call it bears; RFP signal change, %; measured here: RFP humanized mutant strains;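 first replicate; 0 = DMSO median and -100 = no signal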
# Active calls of the source: *; i = inactive; . = not tested or not shown; + = active, no number. A portion of the library. The share of hits here may be higher or lower than overall.
SMILES,Beta cell apopt,T cruzi repl,Ecoli rRNA inh,Ecoli rRNA inh OD600,Ecoli rRNA inh RFP,FGF22 binding,MLL AF4-AF9 inh,Bfl-1 A1 inh,UCH37 inh,E coli growth
CCOC(=O)N1CCC(N2Cc3cccc(C(=O)NC(C)c4ccc5c(c4)OCCO5)c3C2=O)CC1 (stereo not given),2,19,-20,-18,-2.1,i,3.1,0.7,-0.5,0.78
O=Cc1cn(CCC(=O)O)nc1-c1cccc(Br)c1,0,-5,.,.,.,.,-2.7,0.6,-0.8,0.73
O=C(CCN1CCCCCC1)Nc1cccc(Cl)c1,-10,-28,.,.,.,.,.,-1.2,3.3,0.69
CCN(CC)C(=O)C1CCCN(Cc2nc(-c3cccs3)no2)C1 (stereo not given),1,3,13,-5,3.0,i,3.1,-0.5,4.4,0.69
COc1ccc(NC(=O)CCC(=O)N2CCC(c3ccccc3)=N2)cc1S(=O)(=O)N1CCCCC1,.,.,2,14,2.3,i,-7.7,.,1.8,0.74
C=CCc1c(C)[nH]c2c(OC)cccc2c1=S,-8,16,-5,-9,-1.7,i,0.0,0.6,-12,0.68
C[C@@]12C(=O)N(c3ccc(Cl)cc3)C(=O)N1[C@@H]1c3ccccc3OC[C@@H]1[C@H]2c1ccccc1,-4,.,3,9,-16,i,-2.6,0.0,3.3,.
Cc1ccc(Nc2nnc(SCC3CCCCO3)s2)cc1 (stereo not given),-2,8,.,.,.,.,.,-0.3,1.8,0.65
CCOC(=O)C(C)On1c(-c2cccc(Cl)c2)nc2ccc([N+](=O)[O-])cc21 (stereo not given),23,13,.,.,.,.,.,-2.1,-3.2,0.73
Cc1ccc(S(N)(=O)=O)cc1NC(=O)C1CC2CCC1C2 (stereo not given),2,10,10,6,27,i,0.4,0.1,2.5,0.7
O=C(CNC(=O)C1CCCCC1)OCC(=O)c1ccc(F)cc1,-3,.,3,9,-4.2,i,-2.8,0.8,.,.
COc1ccc(C(=O)c2c3ccc(OC)cc3[n+]([O-])n2Cc2ccc(C(N)=O)cc2)cc1,-2,.,-1,1,2.7,i,6.9,0.6,-1.6,0.69
CC1Cc2ccccc2N1S(=O)(=O)c1cccs1 (stereo not given),4,4,.,.,.,.,.,0.2,4.7,0.69
Cc1ccc(C)c(OC(=O)c2cncc(Br)c2)c1,-3,-12,2,13,2.7,i,-7.9,-0.7,.,.
O=C1NC(=S)N/C1=C/c1cccc2ccccc12,-2,-10,-5,8,-1.0,i,1.6,0.8,3.1,0.69
CC(CN1CCCCC1)OC(=O)c1ccc(Cl)cc1Cl (stereo not given),4,-4,.,.,.,.,.,-1.9,0.6,0.74
COc1cc(C(=O)N/N=c2/sc3ccccc3n2C)cc(OC)c1OC,1,-19,5,5,4.5,i,-2.8,-0.4,.,.
COc1ccc(CN2CCN(c3cccc(C)c3C)CC2)cc1OC,9,-22,.,.,.,.,.,-1.1,1.4,0.68
CC(C)c1ccc(S(=O)(=O)N2CCN(CC(=O)Nc3ccc4c(c3)OCO4)CC2)cc1,3,.,.,.,.,.,.,0.9,-0.3,0.73
CCCCc1ccc(/C(C)=N/Nc2cc(N3CCOCC3)nc(C)n2)cc1,13,62*,-5,-9,8.5,i,18,0.3,.,.
COCc1cc(C)nc(SCC(=O)Nc2cccc(C)c2C)c1C#N,-1,-11,11,6,0.1,i,4.3,0.9,-0.2,0.64
CC(C)NC(=O)C1CCN(C2CCN(C(=O)/C=C/c3cccs3)CC2)CC1,.,-4,8,-4,-1.8,i,-2.3,.,.,.
Cc1nc2sc3c(c2c(=O)[nH]1)CCCC3,-6,-3,-1,-2,4.1,i,4.5,0.6,1.0,0.71
CC1CCCC(N2CCN(C(=O)c3cccc(F)c3)CC2)C1 (stereo not given),3,14,14,2,2.3,i,-4.8,-0.7,2.5,0.66
COc1ccc(C2=C(c3ccc(OC)c(OC)c3)CN3CCCCC3C2)cc1 (stereo not given),-22,.,-13,-4,1.7,i,7.6,0.1,3.3,0.68
O=C(Nc1c(-c2ccccc2)nc2ncccn12)c1cc2ccccc2oc1=O,.,-4,12,10,2.4,i,3.5,1.6,4.4,0.74
O=C(NC(Cc1ccccc1)C(=O)O)/C(=C/c1ccc([N+](=O)[O-])cc1)NC(=O)c1ccc(Br)o1 (stereo not given),-3,0,2,-1,-2.8,i,0.1,1.4,9.9,0.66
CCCCn1c(SCC(=O)Nc2sc3c(c2C(N)=O)CCC3)nnc1-c1ccccc1,6,17,.,.,.,.,.,-0.1,2.9,0.7
O=C(NC1CC1)c1ccc2c(c1)C1C3CCC(C3)C1C(c1ccccc1)N2 (stereo not given),1,15,-18,-48,-19,i,-4.2,0.1,5.0,0.68
CCCC1(CCC)NC(=O)N(CC(=O)N2CCc3ccccc32)C1=O,0,.,1,0,2.2,i,11,-0.3,1.3,0.69
Cc1[nH]n(-c2cccc(Cl)c2)c(=O)c1-c1ccccc1,9,-25,.,.,.,.,.,0.4,1.0,0.71
COc1ccccc1N1CCN(Cc2nc(N)nc(Nc3ccccc3)n2)CC1,2,1,.,.,.,.,.,-0.4,0.9,0.72
CN(CC(=O)Nc1ccc2c(c1)OCCO2)Cc1nc2ccccc2c(=O)[nH]1,1,.,0,-2,-2.2,i,1.6,0.8,0.2,0.71
CN(C)c1ccc(N=Nc2ccccc2C(=O)OCC(=O)NCC2CCCCC2)cc1,18,13,6,-1,4.2,i,19,0.5,6.3,0.73
CN(CC(=O)Nc1ccc(Cl)c(Cl)c1)Cc1nnc(-c2ccc(F)cc2)o1,-8,-9,-14,-4,2.7,i,0.4,-0.6,4.9,0.68
O=C(NC(=S)Nc1ccccc1O)c1ccccc1Cl,-8,-1,-39,-52,-7.7,i,5.1,-0.8,1.7,0.65
Cc1cc(NS(=O)(=O)c2ccc(NC(=O)C(C)Oc3ccccc3Cl)cc2)no1 (stereo not given),-10,-4,-11,-24,-3.2,i,6.8,0.3,0.5,0.68
O=C(c1ccc(F)cc1Cl)N(Cc1ccco1)C1CCS(=O)(=O)C1 (stereo not given),.,.,13,14,2.6,i,-0.4,.,2.0,0.7
CNC(=O)c1c(NC(=O)CCS(=O)(=O)c2ccc(C)cc2)sc2c1CCN(C(=O)OC)C2,.,12,3,4,1.9,i,-0.2,1.0,4.6,0.65
CC12CCC(C(=O)Nc3cccc4ccccc34)(C1Br)C2(C)C (stereo not given),.,13,.,.,.,.,.,0.8,0.2,0.7
O=C(O/C(=C/c1ccccc1)C(F)(F)F)c1ccccc1,.,.,7,5,-1.2,.,-8.4,.,0.7,0.68
CC(=O)Nc1ccc(NC(=O)C2CCC(N3C(=O)C4C5C=CC(C6CC56)C4C3=O)CC2)cc1 (stereo not given),2,-7,2,5,-0.1,i,0.1,-0.5,3.3,0.75
COc1ccc(CCC(C)Nc2ccccc2F)cc1 (stereo not given),-5,0,.,.,.,.,.,-0.9,4.0,0.7
CCOC(=O)C1CCN(C(=O)N(C)C)CC1,-1,1,14,7,-1.6,i,-0.7,-1.0,4.4,0.7
CCN(CC(=O)Nc1ccc(Br)c(C)c1)CC(=O)NC(C)C,10,-1,4,12,2.9,.,0.1,0.3,1.3,0.69
CCN1C(=O)/C(=C/N2CCc3ccccc3C2)SC1=S,.,-10,10,3,10,i,-6.0,-0.2,1.4,0.65
COc1ccc(-c2nc(CN3CCC(C(=O)N4CCOCC4)CC3)c(C)o2)cc1C,-6,2,2,7,0.2,i,-2.4,0.7,0.7,0.7
COc1ccc(-c2nn(-c3ccccc3)cc2/C=C(\C#N)S(=O)(=O)c2ccccc2)cc1OC,.,3,4,-1,7.8,i,-2.3,1.1,-5.2,0.75

# Not a retest: an excerpt of the list.
SMILES,Beta cell apopt,T cruzi repl,Ecoli rRNA inh,Ecoli rRNA inh OD600,Ecoli rRNA inh RFP,FGF22 binding,MLL AF4-AF9 inh,Bfl-1 A1 inh,UCH37 inh,E coli growth
O=C1NC(=S)N/C1=C/c1cccc2ccccc12,-2,-10,-5,8,-1.0,i,1.6,0.8,3.1,0.69
CC(CN1CCCCC1)OC(=O)c1ccc(Cl)cc1Cl (stereo not given),4,-4,.,.,.,.,.,-1.9,0.6,0.74
COc1cc(C(=O)N/N=c2/sc3ccccc3n2C)cc(OC)c1OC,1,-19,5,5,4.5,i,-2.8,-0.4,.,.

# Entries of single compounds, quoted from the list. Values in the order: Beta cell apopt	T cruzi repl	Ecoli rRNA inh	Ecoli rRNA inh OD600	Ecoli rRNA inh RFP	FGF22 binding	MLL AF4-AF9 inh	Bfl-1 A1 inh	UCH37 inh	E coli growth
# COc1ccc(-c2nn(-c3ccccc3)cc2/C=C(\C#N)S(=O)(=O)c2ccccc2)cc1OC is listed as .	3	4	-1	7.8	i	-2.3	1.1	-5.2	0.75
# Cc1cc(NS(=O)(=O)c2ccc(NC(=O)C(C)Oc3ccccc3Cl)cc2)no1 (stereo not given) is listed as -10	-4	-11	-24	-3.2	i	6.8	0.3	0.5	0.68
# COc1ccc(CCC(C)Nc2ccccc2F)cc1 (stereo not given) is listed as -5	0	.	.	.	.	.	-0.9	4.0	0.7

# (next part)
SMILES,Beta cell apopt,T cruzi repl,Ecoli rRNA inh,Ecoli rRNA inh OD600,Ecoli rRNA inh RFP,FGF22 binding,MLL AF4-AF9 inh,Bfl-1 A1 inh,UCH37 inh,E coli growth
O=C(c1ccco1)N1CCN(C(=O)N2CCCCC2)CC1,3,-9,18,8,3.2,i,-0.1,0.7,-0.2,0.7
Cc1nnc(SCCn2c(N3CC(C)CC(C)C3)nc3c2c(=O)[nH]c(=O)n3C)s1 (stereo not given),-4,-10,.,.,.,.,.,0.2,6.1,0.68
CCOC(=O)c1cnc(SC)nc1Oc1cccc(NS(=O)(=O)c2ccccc2)c1,17,56*,.,.,.,.,.,0.5,1.3,0.7
CS(=O)(=O)N(CC(=O)N1CCC(C(N)=O)CC1)Cc1ccc(Cl)c(Cl)c1,1,-12,4,2,2.3,i,-4.6,-0.3,5.2,0.67
CCn1cc(C(=O)N2CCN(c3cccc(Cl)c3)CC2)c2cc(OC)c(OC)cc2c1=O,-5,11,.,.,.,.,.,0.2,6.3,0.71
CC(C)CC1c2[nH]c3ccccc3c2CCN1C(=O)C1CCOCC1 (stereo not given),3,-3,0,0,0.2,i,3.2,-0.3,-14,0.66
Cc1cc(C)c(S(=O)(=O)N(CC(=O)NCc2cccnc2)C2CCCCC2)c(C)c1,0,19,.,.,.,.,.,1.3,-0.4,0.67
CCOC(=O)c1cn(-c2c(Cl)cccc2Cl)c2cc(Cl)c([N+](=O)[O-])cc2c1=O,0,1,.,.,.,.,.,-0.3,-3.7,0.69
CCOc1ccc(-c2cc(C(=O)N/N=C/c3cccnc3)c3ccccc3n2)cc1,10,18,7,11,1.9,+,0.9,0.2,.,.
